miR-21 reporter: qHTS Assay for Modulators of miRNAs and/orActivators of miR-21; HeLa miR-21 FLuc reporter, luciferase, 48 h; 340,000 tested, under 10 active; AID 2288, 2010; Potency, µM (highest dose often 38.3 µM), for the others: at the highest dose reporter change, positive = more light; active = well fitted rising curve with a large enough effect; inconclusive = small, poorly fitted or top-dose-only effect; inactive = no such curve, though single readings can be large or run the other way;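 also: % of control where 0% means no effect; miR-21 action dims this reporter so a rising signal means less miR-21 action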
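Compounds were titrated across several concentrations (up to approximately 40 uM) and incubated 48 hours with HeLa miR-21-FLuc reporter cells (miR-21 target sequence downstream of FLuc, endogenous miR-21). Readout was firefly luciferase luminescence after lytic detection reagent.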
Rango complex inh: qHTS Assay for Inhibitors of Rango (Ran-regulated importin-beta cargo) - Importin beta complex formation. Potency, µM (series often up to 92.2 µM), inactives show top-dose inhibition of complex formation. Rango CFP/YFP FRET sensor + importin beta, 45 min. 0.031% of 340,000 active. AID 540263, 2011; active = rising FRET ratio curve, often small or poorly fitted; inconclusive = mostly compound fluorescence or quenching in the first reads; inactive = flat curves in all reads;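 also: potency is read from the fitted curve at half-maximal effect; 0% = DMSO wells and 100% = buffer wells lacking importin beta; nearly all actives have a fitted effect of over 15% in size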
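FRET biosensor Rango (snurportin 1 IBB between N-terminal EYFP and C-terminal Cerulean), 50 nM in PBS/1 mM DTT/0.02% Tween-20/0.1% BSA, preincubated 5 min RT with compound; 0.125 microM importin beta added, 45 min RT, CFP/YFP FRET ratio read.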
GLA inh pH 4.5: qHTS Assay for Inhibitors of Human alpha-Galactosidase at pH 4.5; AID 1467, 2008; 230,000 tested, under 10 active; purified enzyme, 4-MU-alpha-Gal fluorescence, pH 4.5; activity change, negative = inhibition, % at 105 µM; inconclusive = small, poorly fitted or top-dose-only inhibition, or a rising curve; inactive = flat fitted curve, though single readings scatter; no compound was filed as active;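 also: 0% = full activity with enzyme and -100% = basal without enzyme; dose as in the result columns while the protocol names 77 µM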
Target sequence (P06280 whole entry, looked up): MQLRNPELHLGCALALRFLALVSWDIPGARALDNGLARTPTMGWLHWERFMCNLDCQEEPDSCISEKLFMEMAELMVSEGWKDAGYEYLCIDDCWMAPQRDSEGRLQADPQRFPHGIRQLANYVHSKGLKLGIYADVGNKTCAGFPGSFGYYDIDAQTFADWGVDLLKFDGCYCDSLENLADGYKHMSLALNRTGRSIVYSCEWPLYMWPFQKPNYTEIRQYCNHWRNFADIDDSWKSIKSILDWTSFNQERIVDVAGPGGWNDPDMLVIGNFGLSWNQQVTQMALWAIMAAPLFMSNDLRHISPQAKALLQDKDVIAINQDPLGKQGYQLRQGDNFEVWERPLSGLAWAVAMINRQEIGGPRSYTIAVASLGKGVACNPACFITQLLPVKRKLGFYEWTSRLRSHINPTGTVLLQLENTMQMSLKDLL
Rango release inh: qHTS Assay for Inhibitors of RanGTP induced Rango (Ran-regulated importin-beta cargo) - Importin beta complex dissociation | Snurportin-1 (Homo sapiens) + GTP-binding nuclear protein Ran (Homo sapiens) + Importin … | Biochemical FRET Rango-importin beta, RanGTP-induced dissociation | Potency, µM (top dose mostly 46.1 µM), without a hit: at the highest dose activity change, negative = inhibition | 0.071% of 340,000 active | AID 540253, 2011; active means falling FRET ratio curve, often poorly fitted, with flat reads before Ran was added; inconclusive means other falling curves, or compound fluorescence or quenching; inactive means flat or rising ratio curve;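 also: potency is read from the fitted curve at half-maximal effect; % of control where 0% means no effect; nearly all actives have a fitted effect of over 45% in size; -100% = wells without RanGTP and RCC1; the record marks most hits as doubtful in a second field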
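Rango/importin beta premix (0.1/0.25 uM final), PBS + 1 mM DTT + 0.02% Tween-20 + 0.1% BSA; cpd 5 min RT; FRET pre-read; + RanGTP-RCC1 (0.6 uM Ran, 2 mM GTP, 0.2 uM RCC1); 45 min RT; FRET post-read, ex 430, em 486/530 nm.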
Active calls of the source: *; ? = inconclusive; · = not tested or not shown; & = joins results of further samples; [ ] = another dose, or the depositor's remark. These rows are one share of the data. The share of hits here may be higher or lower than overall.

Rango complex inh | Rango release inh | GLA inh pH 4.5 | miR-21 reporter | mol
-0.6% | 1% | · | · | CCOC(=O)[C@H]1[C@H]2COc3ccc(Cl)cc3[C@@H]2N2C(=O)CN(CC3CCCO3)C(=O)[C@@]12C (stereo partly drawn)
-4.7% | -12% | 4 | 2% | OC(CCN1CCC2(CC1)OCCO2)C(F)(F)F (stereo not drawn)
3.5% | 11% | · | · | N#Cc1ccc(OCC(=O)N2CCN(S(=O)(=O)c3cccc(Cl)c3)CC2)cc1
0.7% | 2% | · | · | CC(OC(=O)c1nccnc1N)C(=O)Nc1ccc(S(=O)(=O)N2CCCC2)cc1 (stereo not drawn)
0.1% | 1% | -1 | 0% | O=C(Nc1cccc(-c2cc3ccccc3oc2=O)c1)c1ccc(Br)o1
? | 1% | -5 | -7% | COc1cc(C(=O)CSc2nnc(-c3ccc(O)cc3)n2CC2CCCO2)ccc1NC(C)=O (stereo not drawn)
8.7% | -1% | 7 | -2% | Cc1nnc(C)n1/N=C/c1ccc(C(=O)O)cc1
2.4% | 0% | 3 | -7% | CC1C=CC(C)C(C(=O)O)C1C(=O)O (stereo not drawn)
-3.0% | -5% | 7 | 0% | CCn1nnc2c(=O)oc3ccccc3c21
-0.7% | -7% | -3 | 1% | CN(C)N1C(N)=C(C#N)C(c2cccnc2)C2=C1CCCC2=O (stereo not drawn)
0.8% | 6% | 1 | -30% | Cc1ccc2nc(-c3ccc(NC(=O)Cc4cccs4)cc3)[nH]c2c1
? | 1% | · | 0% | CSc1cccc(NC(=O)C2C3C=CC4(O3)C2C(=O)N(CCCN2CCOCC2)C4C(=O)NC2CCCCC2)c1 (stereo not drawn)
1.1% | 1% | -1 | -33% | O=C(Cc1ccccc1F)Nc1nc(-c2cccs2)cs1
-0.2% | 0% | · | · | COc1ccccc1C=NN=C1c2ccccc2-c2ccccc21
5.2% | 18% | -7 | -3% | O=C(NCc1ccccc1)Nc1cccn(Cc2ccc(Cl)cc2)c1=O
? | ? | -3 | -49% | O=C(Nc1nccs1)c1ccc(-c2ccc([N+](=O)[O-])cc2)o1

Structural class: the entries above containing a Cl atom (3)
Rango complex inh | Rango release inh | GLA inh pH 4.5 | miR-21 reporter | mol
-0.6% | 1% | · | · | CCOC(=O)[C@H]1[C@H]2COc3ccc(Cl)cc3[C@@H]2N2C(=O)CN(CC3CCCO3)C(=O)[C@@]12C (stereo partly drawn)
3.5% | 11% | · | · | N#Cc1ccc(OCC(=O)N2CCN(S(=O)(=O)c3cccc(Cl)c3)CC2)cc1
5.2% | 18% | -7 | -3% | O=C(NCc1ccccc1)Nc1cccn(Cc2ccc(Cl)cc2)c1=O

Next part:
Rango complex inh | Rango release inh | GLA inh pH 4.5 | miR-21 reporter | mol
? | 1% | -3 | 4% | C/C(=N\NC(=S)Nc1c(C)cccc1C)c1ccc(O)cc1
3.9% | 14% | · | -8% | O=C(CCN1C(=O)[C@H]2CC=CC[C@H]2C1=O)NCc1nc(-c2ccccc2)no1
0.1% | -6% | 0 | -3% | CCOC(=O)c1sc(NC(=O)CN2CCCC2)c(C(=O)OCC)c1C
-0.8% | -5% | · | · | O=C1CC2(CCCC2)Oc2ccccc21
? | -17% | -5 | -1% | O=c1c(-c2ccco2)[n+]([O-])c2ccccc2n1OCc1c(F)cccc1F
-2.1% | 0% | 3 | ? | c1ccc(CN2CCN(c3ncnc4c3[nH]c3ccccc34)CC2)cc1
-1.1% | 1% | · | 6% | O=C(NC1CCN(C(=S)Nc2ccc(F)cc2)CC1)c1ccco1
-1.3% | 32% | · | · | Cc1c[n+]([O-])cc(C)c1Oc1ccccc1
-3.2% | 39% | -2 | -19% | Nc1nc(-c2ccc(Br)cc2)cc(C(F)(F)F)n1
-1.1% | -9% | · | 3% | Cc1cc(C)cc(N(CCC#N)C(=O)COC(=O)c2ccccc2SCC(=O)N2CCCC2)c1
-5.6% | 1% | 9 | -5% | Fc1ccc(-c2csc3[n+]2CCS3)cc1
1.3% | -13% | 3 | -7% | Cn1c(=O)[nH]c(=O)c2c1nc1n2CC(COc2ccc3ccccc3c2)O1 (stereo not drawn)
-0.4% | 10% | 1 | 26% | COc1ccc(-c2cc(C3CCN(c4ccc(C(C)=O)cc4[N+](=O)[O-])CC3)[nH]n2)cc1
? | 1% | · | · | CC(C)c1ccc(OC(=O)c2ccc3c(=O)n4c(nc3c2)CCC4)cc1
3.8% | -4% | -4 | -4% | Cc1ccc(S(=O)(=O)CCC(=O)OCc2ccc(S(=O)(=O)C(C)C)cc2)cc1
0.1% | -13% | 6 | 3% | Cc1ncoc1C(=O)NCc1ccccc1Cl
2.8% | -6% | -4 | -7% | COc1cccc(CC2(CO)CCCN(Cc3ccc4c(c3)OCCO4)C2)c1 (stereo not drawn)
4.2% | 28% | -4 | -80% | O=C(N/N=C/C(Cl)=C\c1ccccc1)c1cccs1
? | ? | -1 | -12% | CC(C)(C)NC(=O)COc1ccc(CNc2ccc3[nH]c(=O)[nH]c3c2)cc1
1.4% | 35% | · | 1% | COc1ccccc1NC(=O)CC1S/C(=N/N=C(\C)C2CCCCC2)NC1=O (stereo not drawn)
0.9% | 37% | · | · | CN(Cc1ccc(C(C)(C)C)cc1)C(=O)C1CCN(C(=O)Nc2ccccc2)CC1
-0.2% | 0% | · | 18% | Cc1nn(C)c(Cl)c1CN1CCCC(C(=O)Nc2cccc(-n3cccn3)c2)C1 (stereo not drawn)
0.1% | -5% | -9 | 15% | COc1ccc(S(=O)(=O)N2CCCCCC2)cc1N(C)S(=O)(=O)c1ccc(Cl)cc1
-1.3% | -7% | · | · | CCOc1ccc(S(=O)(=O)NCCc2ccccn2)cc1
0.4% | 0% | 6 | -13% | Cc1ccc2occ(/C=C/C(=O)O)c(=O)c2c1
2.7% | 0% | -2 | ? | O=C(CSCc1cccc(CSCC(=O)Nc2ccc3ccccc3c2)n1)Nc1ccc2ccccc2c1
· | · | 1 | -4% | Cc1c(Cl)cccc1NC(=O)CSc1nc2c(c(=O)[nH]1)CCCC2
0.0% | 15% | 4 | 0% | COc1ccc(CN(Cc2ccccn2)C(=O)CN2C(=O)C(C)Oc3ccccc32)cc1 (stereo not drawn)
-0.8% | -11% | -25 | -1% | COc1ccc(S(=O)(=O)N2CCC(=O)N2)cc1
1.3% | -8% | · | 0% | CC(C)CN1CCN(Cc2c[nH]c3ccccc23)CC1CCO (stereo not drawn)
0.0% | -8% | 4 | 1% | N=c1c2c(-c3ccccc3)c(-c3ccccc3)oc2ncn1CCN1CCOCC1
-0.3% | -2% | · | 7% | COc1ccc(NC(=O)CSc2ncnc3sc(C)cc23)cc1
1.7% | -14% | 0 | -3% | O=C(c1cc([N+](=O)[O-])ccc1N1CCCC1)N1CCCC1
0.0% | 12% | · | -3% | O=C(C1=C(O)C(=O)N(Cc2ccco2)C1c1cccc([N+](=O)[O-])c1)c1ccco1 (stereo not drawn)
-0.8% | 2% | · | -2% | O=C(NCc1ccc(F)cc1Cl)C1CC(=O)N(C2CCCCCCC2)C1 (stereo not drawn)
7.0% | 0% | · | 2% | CC1CCCN(CCOc2cccc(Oc3ccccc3)c2)C1 (stereo not drawn)
0.2% | -5% | · | · | O=[N+]([O-])c1ccc(Cc2ccccn2)c([N+](=O)[O-])c1
-2.7% | -3% | · | 3% | C[C@H]1CN=C(Nc2ccccc2)N1CCC1CCCC1
1.2% | 1% | 0 | 8% | CC1Oc2ccccc2C=C1/C=N/NC(=O)[C@@H](C)NC(=O)OC(C)(C)C (stereo partly drawn)
? | ? | 0 | -7% | COc1ccc(-c2cc(C3CC3)nc(SCC(=O)c3cccs3)c2C#N)cc1
? | 1% | · | 9% | Cc1ccc(CCNC(=O)Cn2ccc3cc(S(=O)(=O)N4CCCC4)ccc32)cc1
-0.1% | 32% | · | -2% | O=C(CN1CCN(c2ccc(F)cc2)CC1)Nc1ccc(S(=O)(=O)N2CCOCC2)cc1
? | -9% | -1 | 10% | O=C(CN1CCCCCC1)NCCN1C(=O)S/C(=C\c2ccccc2Cl)C1=O
-2.8% | -4% | · | -5% | COc1cc2c(cc1OC)CN(C(=O)CNS(=O)(=O)c1ccc(C)c(C)c1)CC2
-0.4% | 1% | · | · | Cc1cc(C)n2nc(SCC(=O)Nc3ccc(F)cc3[N+](=O)[O-])nc2n1
-0.9% | 2% | -9 | -5% | CC(=O)OCc1cc(=O)n(C)c(=O)n1C
1.4% | 1% | 6 | -20% | COc1ccc2c(c1)C(=O)CC(c1ccccc1F)O2 (stereo not drawn)
3.0% | -11% | · | · | S=c1nn[nH]c2ccccc12
3.8% | -18% | 5 | -18% | Cc1ccc2[nH]c3c(c2c1)CCc1cn[nH]c1-3
-2.9% | 20% | · | · | C/C(=N\NC(=O)COc1cccc(Br)c1)c1ccc2c(c1)OCCO2
3.8% | 6% | · | 1% | Cc1cc2oc(=O)ccc2cc1[N+](=O)[O-]
1.6% | -4% | 1[21.1 µM] | -18%&-12% | Cc1cc(=O)n2c(C(=O)Nc3ccc(C)c(C)c3)c(C(=O)Nc3ccccc3)sc2n1
-1.0% | -7% | · | 6% | CCOc1nc2ccccc2nc1NS(=O)(=O)c1ccc(Cl)cc1
-4.9% | -21% | · | · | Cc1ccc(C(=O)OCC(=O)NC(=O)c2ccccc2)o1
-0.5% | -7% | -3 | 0% | CC1CCN(C(=O)CSc2nc(N)cc(N)n2)CC1
1.1% | -6% | · | · | COc1ccccc1C(CNC(=O)CNC(=O)c1ccc(C)c(C)c1)N1CCCC1 (stereo not drawn)

Arranged by number of heavy atoms (highest first): three of the compounds above
Rango complex inh | Rango release inh | GLA inh pH 4.5 | miR-21 reporter | mol
-1.0% | -7% | · | 6% | CCOc1nc2ccccc2nc1NS(=O)(=O)c1ccc(Cl)cc1
-4.9% | -21% | · | · | Cc1ccc(C(=O)OCC(=O)NC(=O)c2ccccc2)o1
3.8% | -18% | 5 | -18% | Cc1ccc2[nH]c3c(c2c1)CCc1cn[nH]c1-3

Carrying on:
Rango complex inh | Rango release inh | GLA inh pH 4.5 | miR-21 reporter | mol
37µM* | 13% | · | 12% | O=C1c2ccccc2-c2onc3c(N4CCN(CCO)CC4)cc(N4CCN(C(=O)c5ccco5)CC4)c1c23
-0.1% | 0% | 2 | 7% | COc1ccc(-c2noc(C)c2-c2ccc3ccccc3n2)c(O)c1
-1.2% | -3% | · | · | CCN(CC)S(=O)(=O)c1ccc(NC(=O)c2ccc(N3CCCC3=O)cc2)cc1
0.9% | -5% | · | -1% | CC(C)C(OC(=O)CN1C(=O)c2ccccc2C1=O)C(=O)NC1CCCCC1 (stereo not drawn)
1.0% | 5% | · | -2% | Cc1cc(C)cc(NC(=O)Nc2c(Br)cnn2C)c1
4.3% | 2% | · | -6%&11% | CCN1CCSc2ccc(C(=O)NCc3ccccc3Br)cc21
-1.1% | -1% | · | · | CCOc1ccc(NC(=O)COC(=O)c2cc(=O)c3ccccc3o2)cc1
? | ? | 0 | 4% | CCOC(=O)C1=C(C)Nc2sc(C(=O)c3ccc(Br)cc3)c(N)c2C1c1ccc(C(=O)OC)cc1 (stereo not drawn)
2.0% | 29% | 5 | -8% | CCCCNC(=O)Cn1c(=O)n(C)c2ccccc21
-4.7% | -7% | -2 | -10% | CNC(=O)CN(c1cc(C)ccc1OC)S(=O)(=O)c1ccc(C)cc1
-1.5% | -4% | · | -2% | COc1ccccc1NC(=O)C1CCCN1C(=O)NC1CCCCC1 (stereo not drawn)
0.7% | -7% | -1 | 2% | CNS(=O)(=O)c1ccc(C(C)(C)C)cc1
1.7% | -5% | · | · | Cc1ccc2sc(N3CCN(C(=O)c4ccc([N+](=O)[O-])o4)CC3)nc2c1C
-0.3% | -1% | 4 | 6% | CNC(=S)NCCc1ccc(OC)cc1
-0.4% | 2% | 1 | 3% | Fc1cccc(CN2CCN3CCCC3C2C2CCCCC2)c1 (stereo not drawn)

High-throughput results (PubChem)
